StopGo reporter = High Throughput Screening for Foot and Mouth Disease Virus Antivirals. human cells with a luciferase reporter of 2A StopGo recoding; control for the full effect not named in the record. Potency, µM (titrated, usually from 57.9 µM), for the others: at the highest dose signal change, negative = less light. AID 1159524, 2015. 1.2% of 410,000 active; active = well fitted falling curve with a large enough effect; inconclusive = small, poorly fitted or top-dose-only effect; inactive = no such curve, though single readings can be large or run the other way; tested in HEK293T cells; also: % is scaled to controls: 0 for no effect and ±100 for the full control effect; nearly all actives have a fitted effect of over 45% in size; luciferase light after 4 h
Lassa entry inh = qHTS for Inhibitors of binding or entry into cells for Lassa Virus. Lassa virus pseudotype entry inhibition, cell reporter; control for the full effect not named in the record. Potency, µM (titrated, usually from 37.9 µM), without a hit: top-dose activity change, negative = inhibition, usual class: inhibitors. 1.2% of 300,000 active; active means well fitted inhibition curve with a large enough effect; inconclusive means small, poorly fitted or top-dose-only effect, or effect the other way; inactive means flat fitted curve, though single readings scatter; tested in HEK293 cells; also: % is scaled to controls: 0 for no effect and ±100 for the full control effect; nearly all actives have a fitted effect of over 50% in size; luciferase read-out
MARV entry inh = qHTS for inhibitors of binding or entry into cells for Marburg Virus; Marburg virus pseudotyped entry inhibition, cell reporter; control for the full effect not named in the record; about a third of the inactives were read at about 46 µM; Potency, µM (top dose mostly 37.8 µM), for inactives: top-dose activity change, negative = inhibition, most hits filed as inhibitors; 1.8% of 300,000 active; active = well fitted inhibition curve with a large enough effect; inconclusive = small, poorly fitted or top-dose-only effect, or effect the other way; inactive = flat fitted curve, though single readings scatter; tested in HEK293 cells; about a fifth of its hits are not listed in these tables; also: % is scaled to controls: 0 for no effect and ±100 for the full control effect; luciferase read-out
Cruzain Triton = qHTS Assay for Promiscuous and Specific Inhibitors of Cruzain (with detergent); purified cruzain, Z-FR-AMC fluorescence, 0.01% Triton; Potency, µM, for the others: max response, negative = inhibition, hits mostly inhibitors; 0.43% of 200,000 active; active = well fitted curve in the direction sought with a large enough effect; inconclusive = small, poorly fitted or top-dose-only effect, or another doubt; inactive = no such curve, though single readings can be large; an effect the other way counts as inactive or inconclusive;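 also: plate controls were neutral wells for no effect and buffer without enzyme for full effect; nearly all actives have a fitted effect of over 40% in size; top concentration of the series not given in the record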
Target sequence (P25779 123-467 limits assumed): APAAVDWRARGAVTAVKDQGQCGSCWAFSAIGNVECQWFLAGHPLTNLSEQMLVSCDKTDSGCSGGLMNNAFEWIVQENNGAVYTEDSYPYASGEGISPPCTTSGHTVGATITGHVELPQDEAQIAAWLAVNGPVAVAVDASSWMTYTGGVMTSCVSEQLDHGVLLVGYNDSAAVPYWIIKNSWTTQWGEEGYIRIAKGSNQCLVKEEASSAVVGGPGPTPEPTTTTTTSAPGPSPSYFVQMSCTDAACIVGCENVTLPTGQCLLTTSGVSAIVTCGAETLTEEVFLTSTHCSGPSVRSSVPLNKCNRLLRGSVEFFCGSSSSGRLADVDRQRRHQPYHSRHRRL
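Enzyme 1.5 nM, Z-FR-AMC 2 uM, NaOAc 100 mM pH 5.5, DTT 5 mM, Triton X-100 0.01%; 15 min RT compound preincubation; kinetic ex360/em450, 60 s delta.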
RE007 growth inh = qHTS Assay for Inhibitors of the HIV-1 protein Vpr; S. pombe RE007 Vpr strain, BacTiter-Glo ATP luminescence, 24 h; control for the full effect not named in the record; Potency, µM (highest dose often 92.2 µM), for the others: top-dose activity change, negative = less growth; AID 651644, 2012; 0.21% of 360,000 active; active = well fitted falling curve with a large enough effect; inconclusive = small, poorly fitted or top-dose-only effect; inactive = no such curve, though single readings can be large or run the other way;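 also: % is scaled to controls: 0 for no effect and ±100 for the full control effect; nearly all actives have a fitted effect of over 50% in size; the assay follows cell death caused by Vpr and the record does not say whether a fall means rescue or toxicity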
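Fission yeast strain RE007, carrying one chromosomally integrated HIV-1 vpr copy, was seeded at OD 0.01 in PMG+AL medium with 23 nL pinned compound. After 24 h at 30 °C and 99% humidity, viability was read by BacTiter-Glo luminescence.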
SARS PLP yeast = qHTS of Yeast-based Assay for SARS-CoV PLP; S. cerevisiae expressing SARS-CoV PLpro, growth rescue; control for the full effect not named in the record; Potency, µM (top dose mostly 32.9 µM), for inactives: at the top dose activity, positive = growth rescue; 0.19% of 330,000 active; AID 485353, 2010; also: 0% is about no effect; nearly all actives have a fitted effect of over 55% in size; growth read by luminescence after 48 h
Cruzain inh noDet = qHTS Assay for Promiscuous and Specific Inhibitors of Cruzain (without detergent). Potency, µM, inactives show max response, negative = inhibition, hits mostly inhibitors. 2.3% of 200,000 active. Cruzipain (Trypanosoma cruzi), P25779. purified cruzain, Z-FR-AMC fluorescence, no detergent; active = well fitted curve in the direction sought with a large enough effect; inconclusive = small, poorly fitted or top-dose-only effect, or another doubt; inactive = no such curve, though single readings can be large; an effect the other way counts as inactive or inconclusive;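 also: plate controls were enzyme without inhibitor for no effect and buffer without enzyme for full effect; nearly all actives have a fitted effect of over 40% in size; top concentration of the series not given in the record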
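Detergent-free condition (0.00005% Triton X-100) in acetate buffer pH 5.5 with DTT. 1.5 nM enzyme and compound were pre-mixed 15 min, then 2 uM Z-FR-AMC substrate added; reaction progress from fluorescence change between first and third reads (60 s).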
NS1 function inh = qHTS Assay for Inhibitors of Influenza NS1 Protein Function; S. cerevisiae slowed by influenza A NS1, growth recovery by OD600; 0.4% of 270,000 active; Potency, µM (highest dose often 46.1 µM), inactives show top-dose activity, positive = more growth; AID 2326, 2010; also: actives are rising curves; nearly all actives have a fitted effect of over 50% in size
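OD600 was taken as the measure of yeast growth restored by compound in an NS1-expressing S. cerevisiae strain. Cells had been washed out of glucose medium and diluted 1:100 into galactose -URA medium, pH 6.0.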
The depositor's hits bear a star; ? = inconclusive; . = no result given; & = joins results of further samples; [ ] = another dose, or the depositor's remark. Unless noted, calls follow the shape of the dose curve; as a rule, active means well fitted rising curve with a large enough effect; inconclusive means small, poorly fitted or top-dose-only effect; inactive means no such curve, though single readings can be large or run the other way. Potency is read from the fitted curve at half-maximal effect.

SMILES | StopGo reporter | Lassa entry inh | MARV entry inh | Cruzain Triton | RE007 growth inh | SARS PLP yeast | Cruzain inh noDet | NS1 function inh
CCOC(=O)C1(CCOc2ccccc2)CCN(Cc2cccc(O)c2)CC1 | -24% | 1%[46.1 µM] | ? | . | -18% | -5% | . | 3%
Cc1cc(Nc2ccccc2)n(CCC#N)n1 | -15% | 11% | 4% | -7.8% | -1% | 0% | 0% | 2%
COc1cc(C(=O)N(Cc2cccnc2)Cc2cc3cc4c(cc3[nH]c2=O)OCCO4)cc(OC)c1OC | -21% | -2% | 0% | -5.7% | -16% | 1% | 9% | -5%
CC(C)COP(=O)(OCC(C)C)C(O)c1cccnc1 (configuration not stated) | -8% | 27% | -9% | -1.4% | 3% | -16% | 7% | -12%
CS(=O)(=O)N(CC(=O)N1CCCC1)c1ccccc1F | -4% | 20%[46.1 µM] | 1%[46.1 µM] | . | 18% | -4% | . | -48%
O=C1N=c2ccccc2=C1c1c(O)[nH]c2c(C(F)(F)F)cccc12 | -17% | 12% | -15% | . | -16% | -9% | . | -26%
CCCn1c(N)c(N(CCOC)C(=O)c2ccc(S(=O)(=O)N3CCOCC3)cc2)c(=O)[nH]c1=O | -5% | -8% | 0% | . | -18% | . | . | .
COc1cc(OC)c(C(=O)Nc2cccc(C(C)=O)c2)cc1OC | 0% | 0% | ? | 0.3% | 10% | -7% | 22% | 2%
CC(C)(C)c1ccc(CSc2cnn(C(C)(C)C)c(=O)c2Cl)cc1 | ? | . | . | . | 0% | 4% | . | 0%
Cc1ccc(C2C=C(c3ccccc3OC(F)F)Nc3ncnn32)cc1 (configuration not stated) | -18% | -5% | -15% | -5.6% | 13% | -10% | 11% | -10%
Cc1ccc(-c2c(CN3CCN(c4cc(Cl)ccc4C)CC3)csc2C)cc1 | -16% | -2%[46.1 µM] | . | -2.5% | . | . | -9% | .
Cc1cccc(-n2ncc(C(=O)N3CCN(C(=O)c4ccco4)CC3)c2C2CCN(C(=O)OC(C)(C)C)CC2)c1 | -12% | 13%[46.1 µM] | . | -0.2% | . | . | 11% | .
Cc1nnc(SCC(=O)N2c3ccccc3Sc3ccccc32)n1N | . | 2% | 13% | 2.6% | -3% | -1% | -6% | -1%
O=C(COC(=O)/C=C/c1ccccc1Cl)NC(=O)NCc1ccccc1 | 0% | -1% | -1% | . | -8% | 5% | . | .
O=C(NC1CCCCC1)Sc1ccc(Cl)cc1 | 32µM* | 0% | 19%[46.1 µM] | 3.1% | 0% | 4% | -10% | -37%
COC(=O)c1ccc(NC(=O)CC2C(=O)N(c3cccc(OC)c3)C(=O)N2C(C)C)cc1 (configuration not stated) | -16% | ? | . | -6.1% | . | . | 7% | .
N#CC(c1ccc(O)cc1)N1CCCCC1 (configuration not stated) | 34%[activator] | 2% | 9%&9% | 4.4% | 14% | -9% | -10% | 0%
CCOCCCNC(=O)Cc1ccc(Br)cc1 | -3% | 3% | 23% | 1.7% | 2% | 10% | -6% | 14%
CC(=O)c1cccc(NS(=O)(=O)N(C)C)c1 | -12% | 6% | ? | 1.9% | -14% | 6% | -4% | 2%
CCOC(=O)c1cccc(NC(=O)c2cn(-c3cccc(OC)c3)c(=O)c3ccccc23)c1 | -2% | -13%[46.1 µM] | . | -2.5% | . | . | 3% | .
COc1cc(OC)c(OC)cc1CN1CCN(Cc2cccc(F)c2)CC1 | -11% | . | . | . | 59% | 4% | . | -10%
CCCN(c1ccc(C(C)C)cc1)S(=O)(=O)c1ccc2c(c1)n(C)c(=O)c(=O)n2C | -20% | -21%[46.1 µM] | ? | -2.3% | . | . | 0% | .
CN(C(=O)c1cc([N+](=O)[O-])ccc1N1CCCC1)C1CCCCC1 | -15% | -19%[46.1 µM] | 6%[46.1 µM] | . | 4% | 4% | . | 0%
CN(Cc1ccccc1)C(=S)NC(=O)c1ccc(-c2ccccc2)cc1 | -9% | 6% | ? | -5.3% | -12% | 11% | -10% | -16%
Cc1c(C(=O)NN2CCN(C)CC2)cccc1[N+](=O)[O-] | 2% | -13% | -11% | -0.9% | 8% | -2% | -8% | -1%
SMILES | StopGo reporter | Lassa entry inh | MARV entry inh | Cruzain Triton | RE007 growth inh | SARS PLP yeast | Cruzain inh noDet | NS1 function inh
CN(C)c1ccc(NC(=O)CN2CCN(S(=O)(=O)c3cc(Cl)ccc3Cl)CC2)cc1 | -28% | -9% | 3%&3% | -4.6% | -15% | 3% | -10% | -13%
CC(=O)c1c(C)[nH]c(C(=O)NCCc2c[nH]c3ccccc23)c1C | 26% | -1%[46.1 µM] | -5%[46.1 µM] | . | 10% | 2% | . | 15%
O=C(CCn1nc(-c2ccc(Cl)cc2)ccc1=O)NCc1ccccn1 | 3% | -14% | -4% | 2.7% | 21% | -5% | 2% | -9%
CCOC(=O)c1cc(S(=O)(=O)N2CCN(c3ccc(C)cc3C)CC2)[nH]n1 | 0% | -5%[46.1 µM] | . | -8.8% | . | . | 26% | .
CC(=O)OCC1OC(n2ncc(=O)n(Cc3ccccc3)c2=O)C(OC(C)=O)C1OC(C)=O (configuration not stated) | -16% | -11% | ? | . | 15% | -6% | . | .
CCn1c(C)c(C)c2cc(C(=O)NCCCN3CCOCC3)ccc21 | 14% | . | . | . | -3% | ? | . | 1%
COc1ccc(OCC(=O)N2c3ccccc3CC2C)c([N+](=O)[O-])c1 (configuration not stated) | 40%[activator] | 0%[46.1 µM] | ? | . | -19% | -2% | . | .
CSc1ccc(/C=N/Nc2ccc(Cl)c(C(=O)O)c2)cc1 | -83% | ? | . | . | 7% | 15% | . | .
COc1cccc(/C=N/NC(=O)C(C)n2nnc3ccccc32)c1 (configuration not stated) | -8% | 7% | -4% | -5.1% | -1% | 6% | -13% | -5%
CCC/S(C)=N/S(=O)(=O)c1ccc(C)cc1 (configuration not stated) | -17% | 9% | 28% | -1.6% | . | -2% | 5% | -8%
COc1cccc2c(C)cc(N3CCCCCC3)nc12 | -18% | . | . | . | -8% | -10% | . | -9%
O=C(COc1ccccc1)N1CCN(c2ccc([N+](=O)[O-])c(N3CCCCC3)c2)CC1 | . | ? | -13% | -2.5% | 0% | 2% | -8% | -2%
Cc1cnc(C)c(N2CCN(Cc3nc(-c4cccc(F)c4F)oc3C)CC2)n1 | -24% | 1% | -5% | . | 0% | 0% | . | -1%
CCOc1ccc(N(CC(=O)NCCSCc2ccc(C)cc2)S(C)(=O)=O)cc1 | -24% | -23% | ? | . | 1% | 3% | . | 15%
COc1cc(OC)c2cc[nH]c2c1 | 0% | -4% | 17% | -4.4% | -10% | 6% | -6% | 8%
CCN(CC)S(=O)(=O)c1ccc2nc(NC(=O)c3cncc(Br)c3)sc2c1 | 0% | 24%[46.1 µM] | . | -1.0% | . | . | -12% | .
O=C(NCc1ccccc1CN1CCCC1)C1CCN(S(=O)(=O)c2ccc(F)c(F)c2)CC1 | -21% | 20% | ? | . | -9% | 6% | . | .
CCOC(=O)c1[nH]c(C)c(C(=O)N2CCN(c3ccc(F)cc3)CC2)c1C | ? | 39%[14.3 µM] | 1% | -6.2% | 9% | -2% | ? | 0%
O=C(O)CN1C(=O)NC2(CCc3ccccc32)C1=O (configuration not stated) | 16% | 5% | 5%[46.1 µM] | . | 8% | ? | . | -10%
CCc1ccc(OCC(=O)Nc2nnc(-c3ccco3)s2)cc1 | 21% | . | . | . | 5% | 6% | . | -18%
CN(C(=O)n1cnc2ccccc21)c1ccccc1 | -11% | 0% | -8% | 2.9% | 3% | -6% | -6% | 4%
CN1C[C@H](CO)C=C2c3cccc4[nH]cc(c34)C[C@H]21 | 0% | . | . | . | -10% | 0% | . | 12%
Cc1cccc(-c2nc3ccccc3c(=O)n2NC(=S)N(C)C)c1 | -15% | 21% | 0% | -0.4% | -28% | 2% | -2% | 2%
COc1ccccc1NC(=S)NC1CC2CCC1C2 (configuration not stated) | 54%[activator] | . | . | . | 9% | 26% | . | -9%
COc1cc(NC(=O)c2cc3c(CO)cnc(C)c3oc2=Nc2cccc(C(N)=O)c2)cc(OC)c1 | -14% | . | . | . | -14% | -2% | . | 2%
SMILES | StopGo reporter | Lassa entry inh | MARV entry inh | Cruzain Triton | RE007 growth inh | SARS PLP yeast | Cruzain inh noDet | NS1 function inh
CCN(CC)S(=O)(=O)c1ccc(S(=O)(=O)N2CCCC2)cc1 | -18% | -1% | 21%[46.1 µM] | . | -4% | 0% | . | 8%
CC(=O)c1cccc(NC(=O)c2ccc(Br)o2)c1 | 67%[activator] | 0% | 8% | -1.4% | -3% | -6% | -7% | -46%
CC(Sc1nnc2ccccn12)C(=O)Nc1ncc(Cl)cc1Cl (configuration not stated) | 33%[activator] | 2% | 13%[46.1 µM] | 4.8% | -10% | 2% | 1% | -4%
Cc1ccc(NC(=O)CSc2nnc(COc3ccc(Cl)cc3)o2)cc1 | -1% | -26%[46.1 µM] | -25%[46.1 µM] | -5.7% | . | . | 2% | .
Cc1c(C)n(Cc2ccccc2)c2ncnc(NCCCO)c12 | 2% | 6%[46.1 µM] | 0%[46.1 µM] | . | -18% | -2% | . | -2%
O=S(=O)(c1ccccc1)c1nc(-c2cccs2)oc1NCC1CCCO1 (configuration not stated) | 17% | -10% | 6% | -7.8% | 6% | 4% | -24% | -34%
Cc1ccccc1NC(=O)COC(=O)c1ccc(CSc2ccc(Cl)cc2)cc1 | 23% | ? | -1% | 2.9% | -10% | -16% | 10µM* | 1%
COc1cccc(NC(=O)CN2CCN(S(=O)(=O)c3ccc(F)cc3)CC2)c1 | 2% | 11% | -2% | -0.1% | 2% | 1% | 12% | 3%
O=C(Nc1cc(Cl)cc(Cl)c1)c1cc(S(=O)(=O)N2CCc3ccccc3C2)ccc1F | 0% | 16%[46.1 µM] | . | 1.3% | . | . | 16µM* | .
Oc1ccc(Br)cc1-c1cc(-c2ccccc2F)[nH]n1 | 62%[activator] | 24% | -11%&-11% | 0.2% | -4% | 0% | 20µM* | 5%

Bioassay records as filed in PubChem.
